TSHR agonist – qHTS Assay for Agonists of the Thyroid Stimulating Hormone Receptor. Potency, µM (highest dose often 57.1 µM), inactives show at the top dose activation, actives largely listed as activators. Thyrotropin receptor (Homo sapiens), P16473. 73,000 compounds, 0.48% hits. HEK293-CNG-TSHR cells (CNG channel as cAMP sensor), membrane potential dye, cAMP; active = well fitted activation curve of enough size with the parental cells flat; inconclusive = any curve in the parental cells; inactive = parental cells flat and receptor cells flat or falling; further: potency means the concentration at half of the fitted maximal effect; % of control where 0% means no effect; weak receptor curves with flat parental cells got no call and are not listed
Target sequence (P16473 whole entry, looked up): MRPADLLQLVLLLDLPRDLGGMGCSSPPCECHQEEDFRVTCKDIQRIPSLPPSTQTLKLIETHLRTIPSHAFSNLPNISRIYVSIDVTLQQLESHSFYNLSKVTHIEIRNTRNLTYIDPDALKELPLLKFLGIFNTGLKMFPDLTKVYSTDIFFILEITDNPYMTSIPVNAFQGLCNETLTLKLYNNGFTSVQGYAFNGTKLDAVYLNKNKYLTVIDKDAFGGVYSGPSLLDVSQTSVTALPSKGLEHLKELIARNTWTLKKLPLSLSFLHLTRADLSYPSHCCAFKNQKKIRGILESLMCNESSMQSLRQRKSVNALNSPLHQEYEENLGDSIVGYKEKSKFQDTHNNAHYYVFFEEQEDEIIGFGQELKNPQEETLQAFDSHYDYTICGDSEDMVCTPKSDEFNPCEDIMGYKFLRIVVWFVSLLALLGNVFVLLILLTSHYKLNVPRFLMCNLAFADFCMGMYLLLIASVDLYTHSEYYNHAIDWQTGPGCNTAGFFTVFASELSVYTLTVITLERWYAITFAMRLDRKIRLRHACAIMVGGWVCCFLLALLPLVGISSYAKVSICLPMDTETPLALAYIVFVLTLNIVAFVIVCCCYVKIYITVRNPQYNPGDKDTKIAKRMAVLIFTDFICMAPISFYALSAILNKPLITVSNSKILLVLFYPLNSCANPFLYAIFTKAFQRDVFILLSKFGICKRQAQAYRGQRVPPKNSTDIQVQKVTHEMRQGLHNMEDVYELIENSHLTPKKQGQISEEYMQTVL
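cAMP rise detected as CNG-channel membrane depolarization by fluorescent dye (emission 590 nm), 30 min after compound, following 60 min dye loading containing 100 uM RO 20-1724 at room temperature. Cells: TSHR/CNG HEK 293, with parental CNG HEK 293 as control.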
A488 autofl – qHTS Assay for Spectroscopic Profiling in A488 Spectral Region | AID 591, 2007 | compound autofluorescence, A488 spectral region, dye equivalency; hits give high values | 59,000 compounds, 0.1% hits | max dye equivalency, M; active = above 10 nM dye equivalent; inconclusive = 1 to 10 nM; inactive = 1 nM or less; about half of its hits are not listed in these tables;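 further: highest value over a series up to 38 µM; compound alone in buffer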
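Compound autofluorescence was read in 100 mM Tris pH 8.0 after 15 min at room temperature, ex 480 nm/em 540 nm. Intensities were converted to A488 dye-equivalent concentration using an on-plate six-point A488 standard curve.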
Resorufin fluor – qHTS Assay for Spectroscopic Profiling in Resorufin Spectral Region. Compound fluorescence, resorufin region 547/598 nm, buffer; hits give high values. max dye-equivalent concentration, M. 59,000 compounds, 0.04% hits. AID 588, 2007; active = above 10 nM dye equivalent; inconclusive = 1 to 10 nM; inactive = 1 nM or less; a few of its hits are not listed in these tables; further: highest value over a series up to 38 µM
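Compounds in 100 mM Tris buffer, pH 8.0, incubated 15 min at room temperature, then read with 547 nm excitation and 598 nm emission filters. Fluorescence was converted to dye-equivalent concentration using an on-plate six-point resorufin standard curve.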
AID923 – qHTS Assay for Allosteric/Competitive Inhibitors of Caspase-1: Spectroscopic Profiling in AFC Spectral Region | 75,000 compounds, 1.1% hits | compound fluorescence, AFC spectral region (405/520 nm); almost no hit is shown here | AID 923, 2007 | Potency, µM (series often up to 57.5 µM), for the others: at the top dose fluorescence increase, most hits filed as activators; active means well fitted activation curve with a large enough effect; inconclusive means small, poorly fitted or top-dose-only effect;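 further: potency means the concentration at half of the fitted maximal effect; 0% is about no effect; scaled to a free AFC standard on each plate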
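Compound autofluorescence profiled at 405 nm ex/520 nm em during kinetic caspase 1 run (50 nM enzyme, 5 uM Ac-WEHD-AFC, HEPES pH 7.5, 10 mM DTT). Titration up to 57 uM; baseline from regression intercept, normalized to AFC standard curve.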
A647 autofl – qHTS Assay for Spectroscopic Profiling in A647 Spectral Region | Compound fluorescence, A647 channel (570/671 nm), Tris buffer | max dye-equivalent concentration, M | 59,000 tested, under 10 active | AID 592, 2007; active means above 1 µM dye equivalent; inconclusive means 0.1 to 1 µM; inactive means 0.1 µM or less;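 further: values scaled relative to a standard on each plate; highest value over a series up to 38 µM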
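Spectral profiling of library compounds in pH 8.0 Tris: 15 min room-temperature incubation, single ex/em pair (570/671 nm), response normalized to Alexa 647 equivalents.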
Numbers without * were called inactive; i = inactive; ? = inconclusive; nt = no result given; [ ] = dose if it differs, or a comment. This is a subset, so the mix of outcomes need not match the whole.

compound	TSHR agonist	A488 autofl	Resorufin fluor	AID923	A647 autofl
COc1cc(C)c(CNc2ccc(OC)c(OC)c2)cc1C	-2%[11.4 µM]	nt	nt	14%	nt
Cn1c(=O)c2c(SC3CCCC3)nc(CC(C)(C)C)nc2n(C)c1=O	-1%	nt	nt	3.0%	nt
CCOCCCNC(=O)c1cn(C)c(=O)c2cc(OC)c(OC)cc12	0%[11.4 µM]	i	i	-0.5%	1e-09
COC(=O)N/C(C)=C1/NC(=O)c2ccccc2C(c2ccccc2)N1 (stereo not given)	2%	i	i	0.7%	2.8e-08
Cn1cc(S(=O)(=O)N2CCC(Cc3ccccc3)CC2)c(=O)n(C)c1=O	-6%	nt	nt	-3.8%	nt
CCn1cc(C(=O)NCc2ccc3c(c2)OCO3)c2cc(OC)c(OC)cc2c1=O	-1%[11.4 µM]	i	i	-0.1%	1e-09
CCOC(=O)CSC1=C(C#N)C(c2ccco2)C(C(=O)Nc2cccc(C(F)(F)F)c2)=C(C)N1 (stereo not given)	nt	i	i	3.4%	1e-09
COc1ccc2nc(Nc3nc(C)c(C(C)=O)s3)sc2c1	6%	i	i	8.0%	3.1e-08
CC(=O)N(c1ccccc1)c1c(F)c(F)c(F)c(F)c1F	12%	i	i	0.6%	1e-09
O=C1CCC(c2ccccc2)N1C(=O)c1cccnc1 (stereo not given)	-8%	i	i	-0.5%	2.1e-08
CCCS(=O)(=O)N1CCC(C(=O)NCC2CCCO2)CC1 (stereo not given)	2%	i	i	0.1%	2.3e-08
O=C(Nc1nccs1)C1CCCN(S(=O)(=O)c2cccnc2)C1 (stereo not given)	-9%	nt	nt	-2.9%	nt
O=C(Nc1cnccn1)C1c2ccccc2Oc2ccccc21	10%	i	i	-3.9%	1.7e-08
O=C(O)c1ccccc1-c1ccccc1C(=O)Nc1ccc2c(c1)[nH]c(=O)c1ccccc12	-1%[11.4 µM]	i	i	-6.1%[11.5 µM]	1.1e-08
Cn1c(=O)cc(OCCCC(=O)N2CCN(Cc3ccc4c(c3)OCO4)CC2)c2ccccc21	0%[11.4 µM]	i	i	-1.4%	1.9e-08

(next part)
compound	TSHR agonist	A488 autofl	Resorufin fluor	AID923	A647 autofl
Clc1ccc(-c2nn3c(-c4ccncc4)nnc3s2)c(Cl)c1	13%	i	i	-0.4%	2.1e-08
CC(C)CNc1nc(Oc2ccc(=O)n(C)n2)nc(N2CCOCC2)n1	-5%[11.4 µM]	i	i	-0.8%	3.1e-08
Cc1ccc(-n2nnnc2SCC(=O)c2cc(C)n(-c3cc(C)on3)c2C)cc1	?	i	i	0.8%	1e-09
COc1ccccc1-c1cc(N)n(S(=O)(=O)c2ccc(F)c(C)c2)n1	14%	nt	nt	-1.5%	nt
COc1cc(C(=S)N2CCCC2)ccc1O	-20%	i	i	-0.2%	5.7e-09
COC(=O)CN1C(=O)CSc2ncccc21	-1%	nt	nt	-0.8%	nt
CCOC(=O)N1CCN(S(=O)(=O)c2ccc(OCC)c(C)c2)CC1	19%	i	i	-0.9%	5.3e-09
COc1ccccc1/C=N/n1cnnc1	-4%	nt	nt	-1.4%	nt
O=S(=O)(c1ccccc1)N(Cc1nc(-c2ccccc2)no1)C1CCCCC1	?	i	i	-1.9%	2.6e-08
Cc1ccc(Cn2nnc3c(=O)[nH]c(C(=O)NCc4ccco4)nc32)cc1	0%	i	i	0.8%	1.5e-09
CC1=C(C(=O)OCc2ccccc2)C(C2CCCCC2)NC(=O)N1CCCCCC(=O)O (stereo not given)	?	nt	nt	-5.2%	nt
CCN(CC)CCNc1ncnc2c1[nH]c1ccc(OC)cc12	nt	i	i	nt	4.6e-08
CC(=O)Nc1cccc(OC(=O)N2CCOCC2)c1	-3%	i	i	-1.6%	3.8e-08
Cc1noc(C)c1-c1nccc(Nc2ccc(F)cc2)n1	?	i	i	-1.0%	3e-08
CCS(=O)(=O)N1CCCC(C(=O)NCc2ccccc2Cl)C1 (stereo not given)	4%	i	i	-1.4%	1e-09

Looked up one by one from the list above, two records:
compound	TSHR agonist	A488 autofl	Resorufin fluor	AID923	A647 autofl
COC(=O)CN1C(=O)CSc2ncccc21	-1%	nt	nt	-0.8%	nt
CCOC(=O)N1CCN(S(=O)(=O)c2ccc(OCC)c(C)c2)CC1	19%	i	i	-0.9%	5.3e-09

Carrying on.
compound	TSHR agonist	A488 autofl	Resorufin fluor	AID923	A647 autofl
COc1ccccc1N1CCN(c2nc(C)nc3c2oc2ccccc23)CC1	?	i	i	0.3%	8e-09
CCOC(=O)NC(NC(=O)OCC)C(=O)c1ccccc1	1%	i	i	0.5%	2.4e-08
CN(C)c1ccc(C2N(c3cccc(Cl)c3)C(=O)C3CCCN32)cc1 (stereo not given)	4%	nt	nt	3.4%	nt
COc1ccccc1N1CCN(C(=O)Cn2nnc(-c3ccncc3)n2)CC1	1%	i	i	-0.2%	4.2e-08
Cc1c(NS(=O)(=O)c2ccc3c(c2)n(C)c(=O)n3C)c(=O)n(-c2ccccc2)n1C	nt	i	i	0.4%	6e-09
CN(C)S(=O)(=O)c1ccc(-c2ccccc2)cc1	10%	nt	nt	0.1%	nt
O=C1c2ccccc2S(=O)(=O)N1CCCCN1CCN(c2ncccn2)CC1	28%	nt	nt	-4.4%	nt
CCOC(=O)N1CCN(c2nc(=S)n(-c3ccccc3)c(C)c2C(C)=O)CC1	-4%	nt	nt	2.2%	nt
NC(=O)COc1ccc(C2c3c(oc4ccccc4c3=O)C(=O)N2CC2CCCO2)cc1 (stereo not given)	-12%	i	i	0.5%	1.2e-09
CCn1c(Cc2ccccc2)nnc1SCC(=O)Nc1ccc2c(c1)OCCO2	9%	nt	nt	2.6%	nt
COc1ccc(-c2cc(C(=O)N3CC4(C)CC3CC(C)(C)C4)no2)cc1 (stereo not given)	23%	i	i	-0.6%	1.3e-08
O=C(CSc1ncnc2sc3c(c12)CCCC3)N1CCC(c2noc3ccc(F)cc23)CC1	25%	i	i	-2.7%	1.3e-08
CCOC(=O)c1cccc(NC(=O)CSc2nnc(-c3cccnc3)n2CC)c1	-2%	i	i	0.1%	8.1e-09
CCCOC(=O)Cc1n[nH]c(=O)[nH]c1=O	0%	i	i	-0.8%	1.1e-08
COc1cc2cc(C(=O)O)n(C)c2c(OC)c1OC	1%[11.4 µM]	i	i	0.2%	1e-09

The list goes on:
compound	TSHR agonist	A488 autofl	Resorufin fluor	AID923	A647 autofl
Nc1ccc(S(=O)(=O)c2cccc(N)c2)cc1	0%	i	i	0.6%	1e-09
COCCNCC(=O)C12CC3CC(CC(C3)C1)C2	?	i	i	2.1%	5.4e-09
O=C(C1COc2ccccc2O1)N1CCN(c2ccccc2F)CC1 (stereo not given)	14%[11.4 µM]	nt	nt	-0.3%	nt
Cn1c(=O)c2c3c(sc2n2c(SCC(N)=O)nnc12)CC(C(C)(C)C)CC3 (stereo not given)	nt	i	i	nt	5.9e-08
CCOc1ccc(NC(=O)CN2C(=O)COc3ccc(Cl)cc32)cc1	2%	nt	nt	-0.6%	nt
COc1ccc2nc3oc(C(=O)N4CCC(C(N)=O)CC4)cc3cc2c1	0%	i	i	5.8%	2.1e-09
COc1cccc(Cn2c(=O)c(-c3cccc(C#N)c3)nc3cnc(OC)nc32)c1	12%	i	i	7.1%	3.6e-08
Nc1ccc(C(=O)OCc2nc3ccccc3[nH]2)cc1	-1%	i	i	1.0%	1e-09
Cc1c(Br)c(=O)[nH]c(=O)n1COCc1ccccc1	2%	i	i	0.4%	5.1e-09
COC(=O)c1[nH]c2cccc(C)c2c1NC(=O)CN1CCCc2ccccc21	17%	i	i	3.5%	8e-09
CN1CCc2cccc3c2[C@H]1Cc1ccc(O)c(O)c1-3	-8%	nt	nt	-1.4%	nt
COc1cccc(-c2cc(C(=O)N3CCCc4ccccc43)no2)c1	?	i	i	2.2%	2.4e-08
CCCCCCN(C(=O)CCCCCN1C(=O)NC(c2ccc(-c3ccccc3)cc2)C(C(=O)OCc2ccccc2)=C1C)C(C(=O)NCCCC)c1ccc(OCC(=O)O)c(C(=O)O)c1 (stereo not given)	12%	nt	nt	-5.2%	nt
CCOC(=O)c1c(NC(=O)CSc2nnc(CNC(=O)c3ccco3)n2C)sc2c1CCC2	-19%	i	i	-1.1%	1.9e-08
Cc1ccc(-c2csc(N3CCC(C(N)=O)(N4CCCCC4)CC3)n2)cc1	-2%	nt	nt	-0.5%	nt

More entries follow.
compound	TSHR agonist	A488 autofl	Resorufin fluor	AID923	A647 autofl
CCn1c(COc2ccccc2)nnc1SCC(=O)CC(=O)Nc1ccccc1OC	6%	i	i	1.0%	1e-09
CCn1cc(C(=O)N2CCN(C3CCCCC3)CC2)c2cc(OC)c(OC)cc2c1=O	12%[11.4 µM]	i	i	0.1%	1.6e-09
COc1ccccc1N1CCN(C(=O)c2ccc(S(=O)(=O)N3CCCC3)cc2)CC1	?	i	i	0.2%	2.5e-08
Cn1c(=O)c2c(nc(N3CCCCCC3)n2Cc2cccc3ccccc23)n(C)c1=O	?	i	i	-1.3%	3.1e-08
COc1ccccc1-c1cc(C(F)(F)F)nc(S(=O)(=O)CCCC(=O)Nc2cc(C)on2)n1	21%	i	i	0.7%	3.3e-09
Cc1cc(C)n(-c2nc(NC(C)(C)C)nc(NC(C)(C)C)n2)n1	0%	nt	nt	0.7%	nt
[O-]/[N+](=C\c1ccncc1)c1ccccc1	2%	i	i	-0.8%	2.1e-08
COc1ccc(S(=O)(=O)N2CCN(S(=O)(=O)c3ccc4c(c3)OCCO4)CC2)cc1	-9%	i	i	-0.3%	1e-09
Cn1cccc1P(=O)(c1cccn1C)c1cccn1C	?	i	i	-1.0%	1e-09
CCOC(=O)CNC(=O)C(NC(=O)C1CCC(C)CC1)C(C)CC (stereo not given)	-4%	i	i	-0.1%	1.1e-09
COC(=O)c1ccc(CS(=O)(=O)c2ccccc2C)o1	2%	i	i	0.0%	1.1e-08
O=c1oc2ccccc2cc1-c1nnc(-c2cccc(Br)c2)o1	-40%[inhibitor]	i	i	1.4%	2.5e-08
Cn1c(=O)c2c(nc(N3CCOCC3)n2CC(=O)c2ccccc2)n(C)c1=O	-9%	i	i	-1.2%	1.7e-09
COc1ccccc1NC(=O)c1cc(Cl)ccc1NC(=O)c1ccco1	?	i	i	2.7%	1.7e-09
O=C(O)c1ccccc1NC(=O)C1CCCO1 (stereo not given)	-19%	i	i	-0.3%	3.1e-08
CCn1nnnc1SCC(=O)Nc1cccc(C)n1	7%	i	i	1.1%	3.3e-08

Six compounds from above with just A488 autofl:
| compound | A488 autofl |
| --- | --- |
| Cn1cccc1P(=O)(c1cccn1C)c1cccn1C | i |
| CCOC(=O)CNC(=O)C(NC(=O)C1CCC(C)CC1)C(C)CC (stereo not given) | i |
| COC(=O)c1ccc(CS(=O)(=O)c2ccccc2C)o1 | i |
| O=c1oc2ccccc2cc1-c1nnc(-c2cccc(Br)c2)o1 | i |
| Cn1c(=O)c2c(nc(N3CCOCC3)n2CC(=O)c2ccccc2)n(C)c1=O | i |
| COc1ccccc1NC(=O)c1cc(Cl)ccc1NC(=O)c1ccco1 | i |
